Sa ugtP lethal = kills S. aureus RN4220 lacking UgtP; S. aureus RN4220 ugtP deletion, OD600 growth, 16 h; some inactives read as strong as hits; growth inhibition, % (test concentration not listed); 330,000 compounds, 0.54% hits; AID 1259309;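 active means z-score under -3 and OD600 up to 0.15 on both plates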;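 further: plate controls were untreated wells for no effect and antibiotic for full effect; wells of about 80 µL received 100 nL stock; the first replicate is given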
RN4220 kill = kills Staphylococcus aureus RN4220. S. aureus RN4220 growth, OD600, 16 h. inhibition, % (test concentration not listed). 330,000 compounds, 0.33% hits;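 active means z-score of -3 or lower and OD600 up to 0.18 on both plates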;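 further: plate controls were untreated cells for no effect and reference antibiotic for full effect; stock transfer was 100 nL into about 80 µL; one replicate is shown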
PrP UTR inh = suppresses PrP 5' UTR mRNA reporter expression; cell-based PrP 5' UTR mRNA reporter, plate reader; inhibition, % (test concentration not listed); 340,000 compounds, 0.35% hits; AID 488862;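 active means every replicate at 50% or more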;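 further: 0 = median of the neutral control wells; tested in H4 reporter cells; numbers are from one replicate; inactives centre near -14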
Bead autofluor = compound fluorescence in toxin protease inhibitor counterscreen. compound autofluorescence counterscreen, microsphere flow cytometry; hits give high values. fluorescence intensity (test concentration not listed). 360,000 compounds, 3.1% hits;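 active means at least 3 SD above the mean of all compounds, about 16000 in these data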;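 further: 100 nL of 1 mM stock went into each well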
The depositor's hits bear a star; · = no result given; & = joins results of further samples.

SMILES	Sa ugtP lethal	RN4220 kill	PrP UTR inh	Bead autofluor
CC1CCCC(C)N1C(=O)c1cccc2c1-c1ccccc1/C2=N/O (stereo unspecified)	·	·	9.3	4583
CC(=NO)c1ccc2c(c1)C(=NO)c1ccccc1-2	·	·	-14.4	3317
CC(C)N(CCn1c(SCC(=O)Nc2cccnc2Cl)nc2ccccc2c1=O)C(C)C	·	·	-14.9	3907
CCOc1ccccc1/C=N/NC(=O)C[n+]1ccccc1	·	·	-6.4	3498
O=c1c2ccccc2ncn1CCc1ccncc1	·	·	-31.7	4562
CN(Cc1ccccc1)C(=O)c1cccc(NC(=O)Cc2ccc(NC(=O)C3CCCN(C(=O)C4CCC4)C3)cc2)c1 (stereo unspecified)	·	·	-15.5	4132
Cn1cc[nH]c1=S	·	·	1.5	6060
C[C@H](NCCc1ccc(O)cc1)[C@H](O)c1ccc(O)cc1	·	·	-6.9	5348
Cc1noc(C)c1NC(=O)Nc1ccc2c(c1)C(=O)N([C@H](C)CO)C[C@H](C)[C@@H](CN(C)C(=O)NC(C)C)O2	·	·	-21.7	4099
COc1ccc([C@H]2CC(=O)C=C(c3cccc(CO)c3)C2)cc1	·	·	2.2	3856
COc1ccc(NC(=O)N(C)C[C@H]2Oc3ccc(NC(=O)Nc4ccc5c(c4)OCO5)cc3C(=O)N([C@H](C)CO)C[C@@H]2C)cc1	·	·	-31.5	3986
CCCCN1CC(=O)N2[C@H]3c4cc(Cl)ccc4OC[C@@H]3[C@H](C(=O)OCC)[C@]2(C)C1=O	·	·	10.6	3044
C[C@]1(O)CCC2C3CC[C@@H]4CC(=O)CC[C@]4(C)C3CC[C@@]21C (stereo partly specified)	·	·	-37.8	4217
CC(C)(C)[C@H]1COC(=O)[C@H](NC(=O)OCC2c3ccccc3-c3ccccc32)C/C=C\C[C@@H](CC(=O)N[C@H](CO)Cc2ccccc2)C(=O)N1	·	·	-25.7	3010
CC(C)(C)OC(=O)C[C@@H]1C/C=C\C[C@@H](CC(=O)NCCO)C(=O)N[C@H](C(C)(C)C)COC1=O	·	·	-4.9	3974
C[C@H](CO)N1C[C@H](C)[C@@H](CN(C)S(C)(=O)=O)Oc2ccc(NC(=O)Nc3ccc(C(F)(F)F)cc3)cc2C1=O	·	·	-20.5	3540
Cc1ccc(C(=O)CCC(=O)Nc2ccc(C)cn2)cc1	·	·	-4.5	3152
CCCSc1ccc([C@H]2N[C@@](CC(C)C)(C(=O)OC)[C@H]3C(=O)N(CC)C(=O)[C@@H]23)cc1	·	·	-5.8	2940
Cc1ccn2c(NCc3ccccc3)c(-c3cccc(SC4CCCCC4)c3)nc2c1	·	·	2.0	4184&5816
CCOC(=O)Nc1cc2c(c(N)n1)N=C(c1ccccc1)CN2	·	·	40.7	4477
C/C=C(\NC(C)=O)c1ccccc1	·	·	-8.8	3906
Cc1nnc(C)n1N=Cc1cccnc1	4.5	2.6	·	·
O=C(NN=Cc1cccc(O)c1)c1csc2ccccc12	-0.3	1.9	·	·
Nc1nonc1-n1nnc(C(=O)NN=Cc2cccc(F)c2)c1CN1CCCCCC1	1.4	4.7	·	·
COc1ccccc1/C=C/C=NN1CCN(Cc2cccc3ccccc23)CC1	1.8	-6.8	·	·

In the list so far, two contain a tert-butyl group:
SMILES	Sa ugtP lethal	RN4220 kill	PrP UTR inh	Bead autofluor
CC(C)(C)[C@H]1COC(=O)[C@H](NC(=O)OCC2c3ccccc3-c3ccccc32)C/C=C\C[C@@H](CC(=O)N[C@H](CO)Cc2ccccc2)C(=O)N1	·	·	-25.7	3010
CC(C)(C)OC(=O)C[C@@H]1C/C=C\C[C@@H](CC(=O)NCCO)C(=O)N[C@H](C(C)(C)C)COC1=O	·	·	-4.9	3974

The listing picks up, starting 4 compounds before the break.
SMILES	Sa ugtP lethal	RN4220 kill	PrP UTR inh	Bead autofluor
Cc1nnc(C)n1N=Cc1cccnc1	4.5	2.6	·	·
O=C(NN=Cc1cccc(O)c1)c1csc2ccccc12	-0.3	1.9	·	·
Nc1nonc1-n1nnc(C(=O)NN=Cc2cccc(F)c2)c1CN1CCCCCC1	1.4	4.7	·	·
COc1ccccc1/C=C/C=NN1CCN(Cc2cccc3ccccc23)CC1	1.8	-6.8	·	·
CC(=NNC(=O)c1cccc(Br)c1)c1cccc(NC(=O)c2ccc(C)o2)c1	-2.4	-2.2	·	·
O=C(NN=Cc1cccc(OC2CSC2)c1)c1ccccc1O	2.5	-6.0	·	·
Cc1nn(C)c(C(=O)NN=Cc2ccccc2)c1[N+](=O)[O-]	4.7	-1.3	·	·
O=C1C(Cc2ccccc2)SC(=NN=Cc2ccco2)N1c1ccccc1 (stereo unspecified)	-10.9	4.3	·	·
Cc1ccc(S(=O)(=O)N(CC(=O)NN=Cc2cccc(Cl)c2)c2cccc3cccnc23)cc1	-5.5	0.4	·	·
CC(=NNC(=O)CC1N=C(Cc2ccccc2)NNC1=O)c1ccccc1 (stereo unspecified)	0.7	-1.1	·	·
Cc1cccc(-n2c(C)cc(C=Nn3cnnc3)c2C)c1	6.0	3.8	·	·
C=CCn1c(COc2ccccc2)nnc1SCC(=O)NN=Cc1cc(Cl)ccc1O	-12.4	0.6	·	·
CCN(CC)c1cnn(CC(=NOC)c2ccc(Cl)cc2)c(=O)c1Br	7.7	15.3	·	·
Cc1cccc(C(=O)ON=Cc2c(Cl)n(C)c3ccccc23)c1	19.5	-3.8	·	·
CCCc1ccc(OCc2ccc(C(=O)NN=Cc3cccc([N+](=O)[O-])c3)o2)c(OC)c1	-3.4	0.3	·	·
COCCCNC(=O)c1c(N)n(N=Cc2cccs2)c2nc3ccccc3nc12	-3.2	8.3	·	·
CN(C)CCCNCCCCNC(=O)C=NO	4.1	1.5	·	·
ON=Cc1ccccc1Oc1ccccc1	20.5	-0.7	·	·
CCOC(=O)c1ccc2c(c1)nc(SCC(O)=C(C#N)c1nc3ccccc3[nH]1)n2CC	0.3	-4.5	·	·
CC(=NO)C(CN(C)C)=NO	4.8	3.4	·	·
CCn1cc(C=NNC(=O)c2csc3ccccc23)c(C)n1	3.6	-3.3	·	·
CN(C)c1ccc(C=NNC(=S)SCN2C(=O)C3CCC(C)(C2=O)C3(C)C)cc1 (stereo unspecified)	4.3	7.2	·	·
Cc1ccc(C(=O)NN=Cc2ccc(S(=O)(=O)O)o2)c(Cl)c1	6.6	-0.7	·	·
CCOc1cc(C=NNC(=O)CN2CCCCC2)ccc1OCc1ccccc1	1.6	3.0	·	·
Cc1ccc(NC(=O)ON=C2CCCCC2c2ccc([N+](=O)[O-])cc2[N+](=O)[O-])cc1 (stereo unspecified)	-3.6	-2.2	·	·
O=C(NCc1ccccc1)C(=NO)c1ccccc1	1.5	2.4	·	·
COc1ccc(C=NNc2nonc2N)cc1OC	-3.1	0.8	·	·
O=C(O)COc1ccc(C=NNC(=O)C2CCCN2S(=O)(=O)c2ccc(Cl)cc2)cc1 (stereo unspecified)	-5.7	-4.2	·	·
CCn1ncc(C=NO)c1C	-1.4	-3.4	·	·

Single records, from the list above. Screens in order: Sa ugtP lethal	RN4220 kill	PrP UTR inh	Bead autofluor
C/C=C(\NC(C)=O)c1ccccc1 is entered as ·	·	-8.8	3906
O=C(O)COc1ccc(C=NNC(=O)C2CCCN2S(=O)(=O)c2ccc(Cl)cc2)cc1 (stereo unspecified) is entered as -5.7	-4.2	·	·
C[C@H](CO)N1C[C@H](C)[C@@H](CN(C)S(C)(=O)=O)Oc2ccc(NC(=O)Nc3ccc(C(F)(F)F)cc3)cc2C1=O is entered as ·	·	-20.5	3540
CC(C)(C)OC(=O)C[C@@H]1C/C=C\C[C@@H](CC(=O)NCCO)C(=O)N[C@H](C(C)(C)C)COC1=O is entered as ·	·	-4.9	3974
CCn1cc(C=NNC(=O)c2csc3ccccc23)c(C)n1 is entered as 3.6	-3.3	·	·

Following part.
SMILES	Sa ugtP lethal	RN4220 kill	PrP UTR inh	Bead autofluor
CC(=NOC(=O)c1ccc(C)cc1)c1sc(C)nc1C	-9.6	-1.2	·	·
O=P(C(=NO)N1CCOCC1)(N1CCOCC1)N1CCOCC1	1.2	0.6	·	·
CC(=NNC(=O)c1cc(C2CC2)nc2ccccc12)c1ccc(C)s1	2.4	4.1	·	·
Cc1ccc(-c2ccc(C=NN3C(=O)C4C5C=CC(C6CC56)C4C3=O)o2)c([N+](=O)[O-])c1 (stereo unspecified)	17.4	-4.9	·	·
O=[N+]([O-])c1cc(Cl)cc(C=NNc2ccccn2)c1O	-2.7	1.6	·	·
CC(Oc1cccc2cccnc12)C(=O)NN=Cc1ccc2c(c1)OCO2 (stereo unspecified)	1.8	1.2	·	·
CCCc1ccc(-c2cc(C(=O)NN=Cc3ccc([N+](=O)[O-])o3)c3ccccc3n2)cc1	99.1*	108.5*	·	·
COc1cccc(C=Nn2c(-c3ccco3)nc3ccccc3c2=O)c1	-19.1	5.6	·	·
O=C(NC(=NO)c1ccccc1)Nc1ccc(Cl)cc1	-17.4	-3.7	·	·
C=CCn1c(COc2ccc(Cl)cc2)nnc1SCC(=O)NN=Cc1ccccc1	3.0	2.4	·	·
CC(=NO)C(=O)NCCCNCCCN(C)C	8.8	2.3	·	·
O=C(Cn1cc(C=NO)c2ccccc21)N1CCOCC1	8.1	-0.5	·	·
Cc1cccc(N(CC(=O)NN=Cc2ccc(OCC(=O)NCc3ccco3)cc2)S(C)(=O)=O)c1C	-2.3	-4.6	·	·
Cc1ccn2c(C=NOCc3cccc(F)c3)c(-c3ccc(Cl)cc3)nc2c1	-22.2	-10.1	·	·
CS(=O)(=O)N(CC(=O)NN=Cc1cccs1)c1cccc(Cl)c1Cl	-7.3	-2.7	·	·
Cc1ccc(N2CN=c3sc(=Cc4cccnc4)c(=O)n3C2)cc1	2.5	0.7	·	·
CC(CC(=O)Nc1ccccn1)=NNC(=O)C(=O)Nc1cccc(Cl)c1C	3.9	5.0	·	·
Cc1ccc(NC(=O)c2ccc(NN=Cc3cccc(O)c3)c([N+](=O)[O-])c2)cc1	5.9	6.4	·	·
COc1ccc(C=NNc2ccccc2)cc1Cn1nc(C)c([N+](=O)[O-])c1C	-4.3	-1.9	·	·
CC(=O)NC1CCCN(O)C(=O)C=C(C)CCOC(=O)C(NC(C)=O)CCCN(O)C(=O)C=C(C)CCOC(=O)C(NC(C)=O)CCCN(O)C(=O)C=C(C)CCOC1=O (stereo unspecified)	3.4	7.7	·	·
CCC(=NNC(=O)CSCc1ccc(Cl)cc1)c1ccc2c(c1)OCCO2	1.9	0.0	·	·
Cc1ccc(S(=O)(=O)N(CC(=O)NN=Cc2cccc3c2OCCO3)c2ccccc2F)cc1	1.7	-0.7	·	·
Cc1cc(=O)[nH]c(N=C(N)Nc2cccc3ccccc23)n1	3.8	-2.6	·	·
O=C(NCC1CCCO1)C(=O)NN=Cc1ccc(OCc2ccccc2Cl)cc1 (stereo unspecified)	4.9	2.8	·	·
Cc1ccsc1C=Nn1cnc2sc(C)c(C)c2c1=O	-2.7	14.7	·	·

The list continues:
SMILES	Sa ugtP lethal	RN4220 kill	PrP UTR inh	Bead autofluor
CCOc1ccc(C(=O)NN=Cc2cccc3cccnc23)cc1	3.2	2.9	·	·
O=C(C=Cc1ccc(Cl)cc1Cl)NCCN1CCOCC1	4.5	-1.1	·	·
COCc1cc(C)nc(OCC(=O)NN=Cc2cccc(OC)c2)c1C#N	10.8	2.6	·	·
C(=NN1CCN(C2c3ccccc3-c3ccccc32)CC1)c1cccs1	2.2	-3.7	·	·
CC(=NNC(=O)c1ccc(Cl)s1)c1ccc(NC(=O)COc2ccc(Cl)cc2)cc1	-8.7	1.9	·	·
COc1cccc(C=NNC(=O)c2cc(OCC(F)(F)F)ccc2OCC(F)(F)F)c1	2.9	2.3	·	·
O=c1c(=Cc2ccccn2)sc2n1CN(c1ccccc1)CN=2	-4.1	-1.5	·	·
COc1ccc(C=c2sc3nc(-c4ccccc4)c(-c4ccccc4)n3c2=O)cc1OC	11.0	-2.5	·	·
CCc1ccc(C=NNC(=O)c2cc(C3CC3)nc3ccccc23)s1	-4.2	1.0	·	·
CC(=NNC(=O)CC1N=C(Cc2ccccc2)NNC1=O)c1ccc(Cl)cc1Cl (stereo unspecified)	2.3	5.1	·	·
COc1ccc(C=c2sc3n(c2=O)NC2(c4ccccc4)N(C)C(=O)N(C)C2(c2ccccc2)N=3)cc1 (stereo unspecified)	-2.5	3.0	·	·
Cc1cc(Cl)c(S(=O)(=O)NN=Cc2ccc3c(c2)OCO3)c(Cl)c1	-13.0	7.1	·	·
O=C(NN=C(c1ccccc1)c1cccnc1)C(O)(c1ccccc1)c1ccccc1	-10.8	-3.0	·	·
Cc1ccc(C(=O)ON=CC2=C(Cl)c3ccccc3CC2)cc1	17.4	-0.2	·	·
Cc1ccc(C(C)C)c(OCc2ccc(C(=O)NN=Cc3ccc(O)cc3O)cc2)c1	1.5	15.5	·	·
CC12CCC(C(=O)N(CSC(=S)NN=Cc3ccccc3O)C1=O)C2(C)C (stereo unspecified)	52.1	6.4	·	·
CC1CCCC(C)N1N=Cc1ccc(Cl)cc1 (stereo unspecified)	5.0	3.5	·	·

Not all compounds are listed; rates above refer to the full screens.
